Screens (PubChem BioAssay)
HBB splicing: alters splicing of the hemoglobin beta chain. HBB splicing reporter cell assay, activation; EGFP reporter with mutant IVS2-654 intron; response scale: normalised to 500 nM splice-correcting PNA. Potency, µM (highest dose often 46.1 µM), without a hit: at the highest dose activation, usual class: activators. 65,000 tested, 0.06% active. AID 925; further: potency means the concentration at half of the fitted maximal effect; 0% is about no effect
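HeLa cells stably expressing EGFP interrupted by mutant beta-globin intron 2 (IVS2-654), 500/well in 2% FCS. Treated with compound for 2 days at 37C. Splicing correction scored as total well GFP intensity (488 nm excitation, 500-520 nm emission); 500 nM antisense PNA served as control.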
UbGFP stabilizer: ubiquitin-GFP accumulation via proteasome inhibition. Ubiquitin-GFP reporter cells, proteasome inhibition, GFP fluorescence; response scale: untreated = 0%, 10 µM MG-132 = 100%. Potency, µM (series often up to 45.9 µM), inactives show at the top dose activation (GFP accumulation), actives largely listed as activators. 67,000 tested, under 10 active. AID 526; active means well fitted activation curve with a large enough effect, not every such curve was filed as active; inconclusive means small, poorly fitted or top-dose-only effect, or another doubt; inactive means no such curve, though single readings can be large or run the other way; further: potency means the concentration at half of the fitted maximal effect
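Reporter cells (U2OS, ubiquitin-G76V-GFP fusion) are plated overnight, then treated 4 hr at 37 °C with compound titrations from 46 uM down to 2.9 nM. Activity is scaled against untreated cells and 10 uM MG-132.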
Epigenetic mod: epigenetic modulators derepressing GFP locus in mouse cells; mouse C127i GFP locus derepression, cytometry, 30 h; Potency, µM (highest dose often 46.1 µM), for the others: at the top dose GFP derepression (activation); 68,000 tested, 0.09% active; AID 597; further: % of control where 0% means no effect
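Locus derepression in mouse mammary C127i cells whose integrated CMV-GFP reporter is normally silent; GFP expression after 30 h compound treatment was quantified by counting fluorescent cells.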
BRCT inh green: blocks human BRCA1 BRCT binding to phosphopeptide, green readout. P38398. BRCA1 BRCT-phosphopeptide binding, green fluorescence polarization. Potency, µM (doses to about 76.9 µM), inactives show top-dose activity change, negative = inhibition, hits mostly inhibitors. 75,000 tested, 0.05% active;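 further: potency means the concentration at half of the fitted maximal effect; plate controls were peptide without protein for full effect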
Target sequence (P38398 whole entry, looked up): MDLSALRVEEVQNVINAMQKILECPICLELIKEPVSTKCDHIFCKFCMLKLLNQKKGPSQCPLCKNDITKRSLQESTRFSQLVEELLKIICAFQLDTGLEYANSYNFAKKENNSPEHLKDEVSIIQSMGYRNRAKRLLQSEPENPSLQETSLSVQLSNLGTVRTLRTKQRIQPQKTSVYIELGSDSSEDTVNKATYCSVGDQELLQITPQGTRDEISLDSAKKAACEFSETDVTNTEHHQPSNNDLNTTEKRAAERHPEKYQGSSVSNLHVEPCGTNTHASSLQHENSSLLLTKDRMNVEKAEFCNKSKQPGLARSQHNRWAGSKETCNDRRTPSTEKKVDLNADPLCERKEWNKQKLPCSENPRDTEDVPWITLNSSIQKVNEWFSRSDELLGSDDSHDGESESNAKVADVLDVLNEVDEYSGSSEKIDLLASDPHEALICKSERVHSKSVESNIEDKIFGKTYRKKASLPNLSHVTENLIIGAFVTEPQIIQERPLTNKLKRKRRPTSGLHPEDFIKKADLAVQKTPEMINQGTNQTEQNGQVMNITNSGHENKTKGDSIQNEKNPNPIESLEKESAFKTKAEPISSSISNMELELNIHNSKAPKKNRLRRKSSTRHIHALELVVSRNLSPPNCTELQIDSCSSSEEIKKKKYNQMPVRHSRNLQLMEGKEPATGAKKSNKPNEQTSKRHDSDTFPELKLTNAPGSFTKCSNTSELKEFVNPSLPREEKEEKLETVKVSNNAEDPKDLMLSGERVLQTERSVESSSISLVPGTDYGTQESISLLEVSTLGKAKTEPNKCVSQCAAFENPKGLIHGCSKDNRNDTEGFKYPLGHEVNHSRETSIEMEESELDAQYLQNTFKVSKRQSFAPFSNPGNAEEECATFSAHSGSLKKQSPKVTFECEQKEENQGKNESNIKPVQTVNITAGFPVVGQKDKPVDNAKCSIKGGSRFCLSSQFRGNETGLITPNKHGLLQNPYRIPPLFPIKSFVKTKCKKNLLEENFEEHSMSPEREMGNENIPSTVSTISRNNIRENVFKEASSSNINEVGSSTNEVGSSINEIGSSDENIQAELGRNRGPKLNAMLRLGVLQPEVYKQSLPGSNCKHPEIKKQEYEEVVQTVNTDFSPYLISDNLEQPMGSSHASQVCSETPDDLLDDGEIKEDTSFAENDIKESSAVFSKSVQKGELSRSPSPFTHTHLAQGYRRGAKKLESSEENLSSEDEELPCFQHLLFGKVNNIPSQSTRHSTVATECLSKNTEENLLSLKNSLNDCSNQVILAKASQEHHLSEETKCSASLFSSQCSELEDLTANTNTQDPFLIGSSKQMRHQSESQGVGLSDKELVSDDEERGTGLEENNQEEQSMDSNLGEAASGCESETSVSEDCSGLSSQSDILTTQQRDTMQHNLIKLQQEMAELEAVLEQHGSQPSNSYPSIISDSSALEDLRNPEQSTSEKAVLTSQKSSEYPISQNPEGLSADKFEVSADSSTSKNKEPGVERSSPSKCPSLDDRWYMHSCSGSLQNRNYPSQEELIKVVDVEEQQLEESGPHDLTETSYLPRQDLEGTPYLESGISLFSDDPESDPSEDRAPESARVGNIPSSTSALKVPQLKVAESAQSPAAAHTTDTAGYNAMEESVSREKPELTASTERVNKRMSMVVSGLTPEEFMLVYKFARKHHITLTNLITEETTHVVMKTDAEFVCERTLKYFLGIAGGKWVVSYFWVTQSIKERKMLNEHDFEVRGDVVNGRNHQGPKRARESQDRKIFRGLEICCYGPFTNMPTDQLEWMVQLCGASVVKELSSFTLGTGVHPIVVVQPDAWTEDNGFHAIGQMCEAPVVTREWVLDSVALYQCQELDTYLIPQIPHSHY
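Compounds were incubated for 12 min at room temperature with a complex of 100 nM fluorescein-tagged pBACH1 decapeptide and 250 nM His-tagged BRCT protein. Buffer was phosphate pH 7.3 with EDTA, DTT and Tween 20. Disruption of binding lowers the polarization signal.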
CRE Fsk mod: modulators of forskolin-stimulated CRE signaling in CHO cells. CHO CRE-bla reporter (cAMP response element driving beta-lactamase), forskolin EC10, beta-lactamase ratio. Potency, µM (doses to about 38.2 µM), for the others: at the highest dose activity change, negative = inhibition, actives largely listed as activators. 71,000 tested, 2.5% active; active means well fitted activation curve with a large enough effect in the signal ratio, with a control signal flat, not every such curve was filed as active; inconclusive means small, poorly fitted or top-dose-only effect, or effect the other way, or a change in a side signal; the % refers to the signal ratio; further: potency means the concentration at half of the fitted maximal effect; % of control where 0% means no effect
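Modulation of forskolin signalling: compounds in titration series added with EC10 NKH 477 to CHO cells carrying a CRE-driven beta-lactamase reporter, 3 h, 37C. CCF4 FRET ratio (460/530 nm, ex 405 nm) gives %activity and AC50.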
BRCT PPI red: disrupts BRCA1 BRCT binding to phosphoprotein, red fluorophore readout; AID 892; Potency, µM (titrated, usually from 76.9 µM), for the others: at the highest dose activity change, negative = inhibition, actives largely listed as inhibitors; 75,000 tested, 0.03% active; P38398; BRCT-phosphopeptide binding, red fluorescence polarization; further: on the % scale 0 is the no-effect control and ±100 the full control effect
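Fluorescence polarization: 100 nM His-tagged BRCA1 BRCT with 100 nM TAMRA-labelled phospho-BACH1 decapeptide, phosphate buffer pH 7.3 with 150 mM NaCl, DTT, 0.01% Tween 20; 12 min RT. Binding inhibition seen as FP decrease.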
The depositor's hits bear a star; ? = inconclusive; · = not tested or not shown; & = joins results of further samples; [ ] = another dose, or the depositor's remark. Unless noted, the call rests on the fitted dose curve; in most records, active means well fitted curve in the direction sought with a large enough effect; inconclusive means small, poorly fitted or top-dose-only effect, or another doubt; inactive means no such curve, though single readings can be large; an effect the other way counts as inactive or inconclusive. The list is partial, so the mix of outcomes need not match the whole.

Values run as follows: CRE Fsk mod | Epigenetic mod | BRCT inh green | BRCT PPI red | HBB splicing | UbGFP stabilizer
O=c1cc(-c2ccccc2)oc2cc(O)c(O)c(O)c12
→ 18%&21% | 2% | -3.1% | -4.3% | · | -5%&0%
CC(C)[N+]1(C)[C@@H]2CC[C@H]1CC(OC(=O)[C@@H](CO)c1ccccc1)C2 (some centres undefined)
→ 2% | -1% | 1.2% | 0.4% | -0.2%[20.6 µM] | 7%
O=C(O)/C=C\C(=O)O
→ -10% | · | -1.9% | -0.3% | 0.1% | ·
CN1C2CCC1CC(OC(=O)C(CO)c1ccccc1)C2 (centres undefined)
→ · | · | 0.9%&-1.2%[3.08 µM] | 0.3%&-0.7% | · | ·
Cc1ccc(-c2cc(-c3cccc(F)c3)n[nH]2)c(O)c1
→ -9% | 5% | 1.4% | 2.0% | -0.2% | 2%
CCC(C)(C)C(=O)O[C@@H]1C[C@H](C)C=C2C=C[C@H](C)[C@@H](CC[C@H]3C[C@@H](O)CC(=O)O3)[C@H]21
→ 0%[17.1 µM] | -2%[20.6 µM] | -1.3%[34.4 µM] | 0.2%[34.4 µM] | 1.4%[20.6 µM] | -10%[20.5 µM]
C[C@H]1[C@H](NC(=O)/C(=N/OC(C)(C)C(=O)O)c2csc(N)n2)C(=O)N1S(=O)(=O)O (stereo in doubt)
→ 0%[17.1 µM] | 6%[20.6 µM] | -1.6%[34.4 µM] | -1.2%[34.4 µM] | 2.1%[20.6 µM] | 10%[20.5 µM]
CCC(C)(C)C(=O)OC1CC(C)C=C2C=CC(C)C(CCC3CC(O)CC(=O)O3)C21 (centres undefined)
→ · | · | -2.7%[3.08 µM] | -4.2% | · | ·
Cc1cnc(NC(=O)C2=C(O)c3ccccc3S(=O)(=O)N2C)s1
→ -2% | 0%[20.6 µM] | -0.3%[3.08 µM] | 0.1%&1.6% | 0.4% | 9%
CC(C)=CCC/C(C)=C/COc1ccc2ccc(=O)oc2c1
→ · | · | -3.5%[3.08 µM] | -2.2% | · | ·
O=c1c(-c2ccc(O)cc2)coc2cc(O)ccc12
→ ? | 2%&1% | -0.4%&-1.9% | -0.2%&1.1% | -0.4%&-0.6% | 0%&-5%
Cc1cccc(N2CCN(C(=O)c3cc4c(=O)n(C)c5ccccc5c4n3C)CC2C)c1 (centres undefined)
→ ? | · | 8.4% | 0.9% | -0.6% | -9%
CCCNC[C@H](O)COc1ccccc1C(=O)CCc1ccccc1
→ ? | -2%[20.6 µM] | -3.0%[34.4 µM] | -1.5%[34.4 µM] | -1.2%[20.6 µM] | -2%[20.5 µM]
O=C(/C=C/c1c(C(=O)O)[nH]c2cc(Cl)cc(Cl)c12)Nc1ccccc1
→ · | · | 0.0% | 0.3% | -0.3% | ·

Shown with each value named: 4 of the compounds above.
CCC(C)(C)C(=O)OC1CC(C)C=C2C=CC(C)C(CCC3CC(O)CC(=O)O3)C21 (centres undefined)
  CRE Fsk mod: · | Epigenetic mod: · | BRCT inh green: -2.7%[3.08 µM] | BRCT PPI red: -4.2% | HBB splicing: · | UbGFP stabilizer: ·

Cc1cnc(NC(=O)C2=C(O)c3ccccc3S(=O)(=O)N2C)s1
  CRE Fsk mod: -2% | Epigenetic mod: 0%[20.6 µM] | BRCT inh green: -0.3%[3.08 µM] | BRCT PPI red: 0.1%&1.6% | HBB splicing: 0.4% | UbGFP stabilizer: 9%

CC(C)=CCC/C(C)=C/COc1ccc2ccc(=O)oc2c1
  CRE Fsk mod: · | Epigenetic mod: · | BRCT inh green: -3.5%[3.08 µM] | BRCT PPI red: -2.2% | HBB splicing: · | UbGFP stabilizer: ·

O=c1c(-c2ccc(O)cc2)coc2cc(O)ccc12
  CRE Fsk mod: ? | Epigenetic mod: 2%&1% | BRCT inh green: -0.4%&-1.9% | BRCT PPI red: -0.2%&1.1% | HBB splicing: -0.4%&-0.6% | UbGFP stabilizer: 0%&-5%

Shown as labelled records: part of the list above
Structure: CCC(C)(C)C(=O)OC1CC(C)C=C2C=CC(C)C(CCC3CC(O)CC(=O)O3)C21 (centres undefined)
  CRE Fsk mod: ·
  Epigenetic mod: ·
  BRCT inh green: -2.7%[3.08 µM]
  BRCT PPI red: -4.2%
  HBB splicing: ·
  UbGFP stabilizer: ·

Structure: Cc1ccc(-c2cc(-c3cccc(F)c3)n[nH]2)c(O)c1
  CRE Fsk mod: -9%
  Epigenetic mod: 5%
  BRCT inh green: 1.4%
  BRCT PPI red: 2.0%
  HBB splicing: -0.2%
  UbGFP stabilizer: 2%

Structure: O=C(/C=C/c1c(C(=O)O)[nH]c2cc(Cl)cc(Cl)c12)Nc1ccccc1
  CRE Fsk mod: ·
  Epigenetic mod: ·
  BRCT inh green: 0.0%
  BRCT PPI red: 0.3%
  HBB splicing: -0.3%
  UbGFP stabilizer: ·
